High-throughput results: PubChem BioAssay, National Center for Advancing Translational Sciences (NCATS)
RE007 growth inh: less growth of the S. pombe RE007 Vpr strain; S. pombe RE007 Vpr strain, BacTiter-Glo ATP luminescence, 24 h; control for the full effect not named in the record; Potency, µM (series often up to 92.2 µM), inactives show top-dose activity change, negative = less growth; 360,000 compounds, 0.21% hits; active = well fitted falling curve with a large enough effect; inconclusive = small, poorly fitted or top-dose-only effect; inactive = no such curve, though single readings can be large or run the other way;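 also: nearly all actives have a fitted effect of over 50% in size; the assay follows cell death caused by Vpr and the record does not say whether a fall means rescue or toxicity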
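Fission yeast strain RE007, carrying one chromosomally integrated HIV-1 vpr copy, was seeded at OD 0.01 in PMG+AL medium with 23 nL pinned compound. After 24 h at 30 °C and 99% humidity, viability was read by BacTiter-Glo luminescence.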
StopGo reporter: FMDV 2A StopGo reporter, luciferase signal; 410,000 compounds, 1.2% hits; Potency, µM (doses to about 57.9 µM), for the others: at the highest dose signal change, negative = less light; AID 1159524; human cells with a luciferase reporter of 2A StopGo recoding; control for the full effect not named in the record; active = well fitted falling curve with a large enough effect; inconclusive = small, poorly fitted or top-dose-only effect; inactive = no such curve, though single readings can be large or run the other way; tested in HEK293T cells; also: nearly all actives have a fitted effect of over 45% in size; luciferase light after 4 h
* hit, by the source's call; ? = inconclusive; [ ] = dose if it differs, or a comment. % is scaled to controls: 0 for no effect and ±100 for the full control effect; potency is read from the fitted curve at half-maximal effect.

1. Cc1ccc([N+](=O)[O-])c(OCCCN2CCC(Cc3ccccc3)CC2)c1
2. CCOC(=O)N1CCN(C(=O)C[C@@H]2C[C@@]3(C(=O)OCC)CCC=C3N(Cc3ccccc3)C2=O)CC1
3. COc1ccc(-c2ccc3[nH]c4c(c3c2)CCN2C[C@H]3[C@H](C)ON(C)[C@H]3C[C@@H]42)cc1
4. Cc1ccc(NC(=O)CCC(=O)c2ccccc2)cc1
5. COc1ccc(C2=Nc3ccccc3N(C(=O)c3ccc4ncccc4c3)C2C(=O)NC2CCCC2)cc1 (stereo not drawn)

Compound | 1 | 2 | 3 | 4 | 5
RE007 growth inh | 9.8% | 8.7% | -5.7% | -1.3% | -13.1%
StopGo reporter | -27.6% | -13.2% | -29.7% | 0.6% | 40.8%[activator]

6. O=C1Nc2ccccc2-n2nnnc2C1N1CCN(c2cccc(C(F)(F)F)n2)CC1 (stereo not drawn)
7. CCNC(=O)C1CCCN(Cc2ccc(OCc3ccccc3)cc2)CC1 (stereo not drawn)
8. CCCC#Cc1ccc2c(c1)O[C@H](CN(C)C(=O)CC1CC1)[C@H](C)CN([C@@H](C)CO)S2(=O)=O
9. CC(C)(C)c1cc2nc(NCc3cccc(Cl)c3)ccn2n1
10. CCCc1c(C(=O)N/N=C/c2ccc(C)o2)nnn1-c1nonc1N

Compound | 6 | 7 | 8 | 9 | 10
RE007 growth inh | 6.6% | -1.0%[18.4 µM] | 20.4% | ? | -5.7%
StopGo reporter | -19.1% | 5.6% | 57.4%[activator] | -21.8% | -28.9%

11. CCCCn1nnnc1C1(C)CCC(=O)N1Cc1ccco1 (stereo not drawn)
12. CN(Cc1c(F)cccc1Cl)C(=O)c1cccc(S(=O)(=O)N2CCN(Cc3ccccc3)CC2)c1
13. CC1(C)CC(=O)C=C(c2ccc(COC(=O)c3ccc(-c4ccccc4)cc3)cc2)C1=O
14. N#Cc1ccccc1S(=O)(=O)N1CCN(Cc2cccs2)CC1
15. COc1cc(Cn2c3ccc(NC(=O)CC(C)c4ccccc4)cc3c(=O)n2C)ccc1F (stereo not drawn)

Compound | 11 | 12 | 13 | 14 | 15
RE007 growth inh | 9.7% | -0.7% | -13.6% | -14.5% | -11.3%
StopGo reporter | -14.3% | -22.8% | -22.3% | -13.0% | -21.0%

16. C=C(C)Cn1c2ccc(NC(=O)NCCc3cccs3)cc2c(=O)n1C
17. CC(C)C1C(C#N)=C(N)Oc2c1c(=O)oc1ccccc21 (stereo not drawn)
18. CCOC(=O)N1CCN(C(=O)C[C@@H]2C[C@@]3(C(=O)OC)CCCCC=C3N(CCc3ccc(OC)c(OC)c3)C2=O)CC1
19. C[C@@H]1CN([C@H](C)CO)C(=O)CCCn2cc(nn2)CO[C@H]1CN(C)S(=O)(=O)c1ccc(Oc2ccccc2)nc1
20. COc1ccc(C(=O)c2ccccc2)cc1CN1CCOCC1

Compound | 16 | 17 | 18 | 19 | 20
RE007 growth inh | 13.2% | -13.1% | 0.0% | 17.7% | -3.9%
StopGo reporter | 37.1%[activator] | -22.6% | -2.9% | -12.0% | 9.5%

Structures above that contain fluorine, in the order listed:
6. O=C1Nc2ccccc2-n2nnnc2C1N1CCN(c2cccc(C(F)(F)F)n2)CC1 (stereo not drawn)
12. CN(Cc1c(F)cccc1Cl)C(=O)c1cccc(S(=O)(=O)N2CCN(Cc3ccccc3)CC2)c1
15. COc1cc(Cn2c3ccc(NC(=O)CC(C)c4ccccc4)cc3c(=O)n2C)ccc1F (stereo not drawn)

Compound | 6 | 12 | 15
RE007 growth inh | 6.6% | -0.7% | -11.3%
StopGo reporter | -19.1% | -22.8% | -21.0%

The list continues:
21. Cc1cc(C)c2cc(N)c(Cl)nc2n1
22. CCOC(=O)C1=CCC(c2ccc(F)cc2)N(S(=O)(=O)c2ccc(C)cc2)C1 (stereo not drawn)
23. CCN(C(=O)COC(=O)c1cccc2ccccc12)c1c(N)n(Cc2ccccc2)c(=O)[nH]c1=O
24. CC1(C(=O)NS(=O)(=O)C2CC2)CCCN(C(=O)CSc2ccccc2)C1 (stereo not drawn)
25. COc1cc(OC)c(C=Cc2ccncn2)c(OC)c1

Compound | 21 | 22 | 23 | 24 | 25
RE007 growth inh | -14.0%[18.4 µM] | -8.1% | -3.4% | 12.5% | -5.8%
StopGo reporter | -12.2% | -18.6% | -24.0% | -13.8% | -2.0%

26. COc1cc(C=C2C(=O)C=CC2=O)ccc1O
27. CN(C)c1ccc(-c2ccnc3c2CC(C)(C(=O)Nc2ccc(Cl)c(C(F)(F)F)c2)O3)cc1 (stereo not drawn)
28. COc1cccc(C(NC(C)=O)c2nc(-c3cccs3)cs2)c1 (stereo not drawn)
29. COc1cccc(C(NC(C)=O)c2nc(-c3ccc4ccccc4c3)cs2)c1 (stereo not drawn)
30. CC1(Oc2ccc3ccccc3c2)CCN(Cc2cccn2-c2nccs2)C1 (stereo not drawn)

Compound | 26 | 27 | 28 | 29 | 30
RE007 growth inh | 2µM* | 27.4% | 1.2%[18.4 µM] | -5.6% | -28.7%
StopGo reporter | ? | -36.7% | 0.2% | -17.3% | -22.7%

31. O=C(Nc1ccc(C(=O)N2CCOCC2)cc1)C1CC1
32. COc1cc(Cl)cc(/C=N\NC(=O)c2ccc3c(c2)OCO3)c1O
33. C[C@H](O)[C@@H]1C(=O)N2CCc3ccc(N4CCN(C)CC4)cc3[C@@H]2C[C@@H]1N(C)C(=O)c1ccco1
34. Cc1ccccc1C(=O)NNS(=O)(=O)c1ccc(F)cc1
35. Cc1ccccc1N=C1Nc2ccccc2N[C@]12C[C@H]1CCC(=O)N3CC[C@@H](C2)[C@@H]13

Compound | 31 | 32 | 33 | 34 | 35
RE007 growth inh | -8.2% | 7.9% | -0.3% | -1.9% | -2.2%
StopGo reporter | -14.6% | -5.9% | -13.9% | 44.2%[activator] | -14.3%

Some of these compounds in order of length of the SMILES, highest first:
33. C[C@H](O)[C@@H]1C(=O)N2CCc3ccc(N4CCN(C)CC4)cc3[C@@H]2C[C@@H]1N(C)C(=O)c1ccco1
29. COc1cccc(C(NC(C)=O)c2nc(-c3ccc4ccccc4c3)cs2)c1 (stereo not drawn)
32. COc1cc(Cl)cc(/C=N\NC(=O)c2ccc3c(c2)OCO3)c1O
34. Cc1ccccc1C(=O)NNS(=O)(=O)c1ccc(F)cc1
31. O=C(Nc1ccc(C(=O)N2CCOCC2)cc1)C1CC1

Compound | 33 | 29 | 32 | 34 | 31
RE007 growth inh | -0.3% | -5.6% | 7.9% | -1.9% | -8.2%
StopGo reporter | -13.9% | -17.3% | -5.9% | 44.2%[activator] | -14.6%

Other entries follow.
36. C[C@@H]1CN([C@H](C)CO)S(=O)(=O)c2ccc(Br)cc2O[C@H]1CN(C)C(=O)C1CCCCC1
37. O=S1(=O)CC(N2CC=CC2)CN1Cc1ccc(F)cc1 (stereo not drawn)
38. Cc1ccc(C(=O)CCC(=O)OCC(=O)N2CCN(S(=O)(=O)c3ccc(C)cc3C)CC2)cc1
39. C=CCOC(=O)Nc1nc(CCNC(=O)OCc2ccccc2)c(C(=O)O)s1
40. O=C1NCN(c2ccccc2)C12CCN(C(c1nnnn1Cc1ccccc1)C1CC1)CC2 (stereo not drawn)

Compound | 36 | 37 | 38 | 39 | 40
RE007 growth inh | 1.7% | -2.5% | -1.8% | 0.0% | 5.0%
StopGo reporter | ? | 0.0% | -16.8% | -2.1% | -15.5%

41. Cc1c(C(=O)NCCN(C)C)n(C)c(=O)c2ccccc12
42. COc1cccc(-c2cnc(C(O)c3ccc(OC)c(F)c3)[nH]2)c1 (stereo not drawn)
43. CCOC(=O)[C@H]1Nc2ccc(Cl)cc2[C@@H]2[C@H]1C1CC(c3ccccc31)N2C(=O)OCc1ccccc1 (stereo partly drawn)
44. COc1ccc(C2CCc3cc4c(cc3C2=NOC(C)=O)OCO4)cc1OC (stereo not drawn)
45. C[C@@H]1CN([C@@H](C)CO)C(=O)CCCn2cc(nn2)CO[C@H]1CN(C)C(=O)c1ccc2ccn(C)c2c1

Compound | 41 | 42 | 43 | 44 | 45
RE007 growth inh | -7.3% | -23.9% | 1.0% | 9.1% | -2.3%
StopGo reporter | -10.6% | 33.3%[activator] | -5.7% | ? | -14.1%

Another view of some results above:
Every second line gives: RE007 growth inh | StopGo reporter
41) Cc1c(C(=O)NCCN(C)C)n(C)c(=O)c2ccccc12
    -7.3% | -10.6%
42) COc1cccc(-c2cnc(C(O)c3ccc(OC)c(F)c3)[nH]2)c1 (stereo not drawn)
    -23.9% | 33.3%[activator]

(more compounds)
46. Nc1ncnc2c1ncn2[C@@H]1O[C@H](C(=O)N2CCSC2)[C@@H](O)[C@H]1O
47. CCc1nc2c(OCC(=O)C(C)(C)C)cccn2c1N(C)C(=O)c1ccc(C)cc1
48. CCO[C@@H]1OC(C(=O)O)=C[C@H](c2ccccc2)[C@H]1CCCO
49. O=C(Nc1ccn(CCCNCC(c2ccccc2)c2ccccc2)c(=O)n1)OCc1ccccc1
50. C[C@H]1CN([C@@H](C)CO)C(=O)c2cc(C#Cc3cccnc3)cnc2O[C@H]1CN(C)Cc1ccc(F)cc1

Compound | 46 | 47 | 48 | 49 | 50
RE007 growth inh | -0.2% | 1.6% | -8.5% | -13.6% | -1.6%
StopGo reporter | 0.0% | ? | -7.6% | -26.0% | -7.8%

51. CN1CCN(C(=O)C2=C[C@H](c3ccc4c(c3)OCO4)C[C@H](OCCCCO)O2)CC1
52. CCSc1c([N+](=O)[O-])c(=O)n(-c2ccccc2)c2ccccc12
53. Cc1ccc(C(=O)N(CC(=O)NC2CCCC2)c2ccccc2F)s1
54. CC(=O)Nc1ccc(CN2CCC(N3CCC(C(=O)NC4CC4)CC3)CC2)cc1
55. CCCNC(=O)C1(C)CCCN(C(=O)c2c(C)noc2C)C1 (stereo not drawn)

Compound | 51 | 52 | 53 | 54 | 55
RE007 growth inh | 1.4% | -4.4% | -11.6% | 5.4% | -16.7%[18.4 µM]
StopGo reporter | 1.5% | -20.4% | -11.1% | -15.6% | 1.5%

56. CC1(C(=O)NS(=O)(=O)C2CC2)CCN(C(=O)c2ccccc2OC(F)(F)F)C1 (stereo not drawn)
57. Cc1ccccc1OCC(=O)OCC(=O)NC1CCCC1
58. O=C(Nc1ccc(F)cc1)C(c1cccc(F)c1)N1CCN(c2ccncc2)CC1 (stereo not drawn)
59. O=C1CCC2(CCCC2)c2ccccc21
60. O=C(Cn1ccc(=O)[nH]c1=O)Nc1nccs1

Compound | 56 | 57 | 58 | 59 | 60
RE007 growth inh | 20.8% | -19.8% | ? | 13.8% | -4.4%
StopGo reporter | -6.4% | 0.0% | -21.0% | -25.9% | -13.9%

61. CC(C)C[C@H]1CNC(=O)C(=O)N1CC1CCN(CCC(C)(C)C)CC1
62. C=CCn1c(SCC(=O)N2CCN(C(=O)OCC)CC2)nc2c([nH]c3ccccc32)c1=O
63. N#Cc1csc(CCNC(=O)c2ccccc2)n1
64. Cc1sc2ncnc(N3CCC(C(=O)Nc4cc(C(F)(F)F)ccc4OCC(F)(F)F)CC3)c2c1C
65. Cc1cccc(S(=O)(=O)NC(=O)C2(C)CCN2C(=O)Cc2ccsc2)c1 (stereo not drawn)

Compound | 61 | 62 | 63 | 64 | 65
RE007 growth inh | -1.0% | 18.9% | -23.0% | -5.3% | 4.7%[18.4 µM]
StopGo reporter | 0.7% | -28.5% | 3.4% | ? | -4.2%

66. N#CCC1(O)C(=O)N(Cc2ccccc2)c2ccccc21 (stereo not drawn)
67. COC(=O)C[C@@H]1CC[C@H](NC(=O)Nc2ccc(F)cc2)[C@@H](CO)O1
68. Cc1ccc(NC(=O)NNC(=O)COc2ccc(Cl)cc2)cc1
69. C=CCNC(=O)CSc1nnc(-c2cccc(S(=O)(=O)N3CCOCC3)c2)o1
70. CCCc1nc2c3ccccc3ccn2c1Cc1cccc(Cl)c1

Compound | 66 | 67 | 68 | 69 | 70
RE007 growth inh | 8.3% | -8.2% | 15.0% | -8.5% | -25.6%
StopGo reporter | -6.8% | -10.5% | -3.6% | -5.1% | 15.2%

71. CC1=C(C(=O)N(C)C)CC(CC(=O)NCc2cccc3ccccc23)C(=O)N1CCCN1CCCC1=O (stereo not drawn)
72. CCc1nc2c(OCc3ccccc3)cccn2c1N(Cc1ccccc1)C(C)=O
73. Cc1nc2c(OCc3ccc(C(F)(F)F)cc3)cccn2c1N(C)Cc1cccs1
74. C[C@@H]1CN([C@@H](C)CO)C(=O)c2cc(C#CC(C)(C)O)cnc2O[C@@H]1CN(C)C(=O)c1ccccc1F
75. COCC(=O)N(C)[C@H]1C[C@H]2c3cc(N4CCN(C)CC4)ccc3CCN2C(=O)[C@H]1[C@H](C)O
76. CC1(C(=O)NCCc2ccccc2)Cc2c(-c3cccc(C(N)=O)c3)ccnc2O1 (stereo not drawn)

Compound | 71 | 72 | 73 | 74 | 75 | 76
RE007 growth inh | 20.8% | -20.4%[18.4 µM] | -16.0% | 4.3% | 0.3% | -4.8%
StopGo reporter | -13.6% | -22.2% | -5.5% | 4.9% | -7.4% | -9.9%

A portion of the library (hit frequency here may not be typical).
